TRPML1 blocker: blocks the human TRPML1 channel | Q9GZU1 | TRPML1-inducible cells, Ca2+ dye fluorescence, FDSS; stronger effect = lower value; inhibition of EC80 agonist-evoked calcium signal | activity change, negative = inhibition, % (concentration not given with the values) | hit rate 0.02% among 390,000 | AID 624415; in the data active means activity change below about -50%; inconclusive means about -30% to -50%; inactive means above about -30%;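 also: stimulus is agonist 54-4 at its EC80 concentration; % is scaled to controls: 0 for no effect and ±100 for the full control effect; compound concentration not given in the record; the text of the record puts the active cut at -80%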
Target sequence (Q9GZU1 whole entry, looked up): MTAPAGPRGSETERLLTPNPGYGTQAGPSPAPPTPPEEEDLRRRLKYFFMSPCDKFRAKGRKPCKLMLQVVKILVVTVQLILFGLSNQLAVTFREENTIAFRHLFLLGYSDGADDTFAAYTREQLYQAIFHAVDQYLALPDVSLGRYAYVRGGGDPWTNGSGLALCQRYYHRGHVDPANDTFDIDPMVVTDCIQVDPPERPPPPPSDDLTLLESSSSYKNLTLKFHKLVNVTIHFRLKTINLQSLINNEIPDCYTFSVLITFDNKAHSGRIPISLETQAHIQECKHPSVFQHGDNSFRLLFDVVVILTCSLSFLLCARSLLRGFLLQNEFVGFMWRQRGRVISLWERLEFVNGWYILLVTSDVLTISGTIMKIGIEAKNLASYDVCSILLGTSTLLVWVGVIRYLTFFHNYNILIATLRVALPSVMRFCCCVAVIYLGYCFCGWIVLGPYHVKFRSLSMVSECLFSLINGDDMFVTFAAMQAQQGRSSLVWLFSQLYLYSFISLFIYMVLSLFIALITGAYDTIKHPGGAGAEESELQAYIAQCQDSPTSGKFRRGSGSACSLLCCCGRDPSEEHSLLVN
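TRPML1-DL cells, Tet-induced overnight (~16 h, 37 °C) at 1,500 cells/well, were loaded with Ca8 no-wash dye plus quencher for 45-90 min at room temperature. Compounds were pinned during FDSS kinetic reading; agonist 54-4 at EC80 (4 uM final) then added.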
D2 PAM: human D2 receptor positive allosteric modulation; P14416; DiscoveRx D2 beta-arrestin cells, luminescence, 90 min; 100% = 57 uM dopamine signal; potentiation, % (test concentration not listed); hit rate 0.23% among 360,000; AID 624464; active = potentiation of 50% or more; inconclusive = 30% to 50%; inactive = 30% or less;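 also: compound concentration not given in the record; tested on top of an EC20 dose of dopamine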
Target sequence (P14416 whole entry, looked up): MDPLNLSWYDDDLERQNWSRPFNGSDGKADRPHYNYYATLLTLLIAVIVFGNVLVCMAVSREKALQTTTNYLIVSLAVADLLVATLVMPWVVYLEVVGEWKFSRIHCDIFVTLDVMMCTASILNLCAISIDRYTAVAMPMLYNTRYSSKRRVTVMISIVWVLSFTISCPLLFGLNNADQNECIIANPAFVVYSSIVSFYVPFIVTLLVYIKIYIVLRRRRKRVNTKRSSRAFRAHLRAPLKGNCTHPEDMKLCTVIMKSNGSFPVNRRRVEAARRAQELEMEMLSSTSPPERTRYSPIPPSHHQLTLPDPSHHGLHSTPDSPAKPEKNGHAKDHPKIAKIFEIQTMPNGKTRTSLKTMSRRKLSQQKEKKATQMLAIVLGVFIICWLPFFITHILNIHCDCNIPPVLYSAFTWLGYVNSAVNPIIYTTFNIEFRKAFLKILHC
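PathHunter beta-arrestin assay in DiscoveRx D2 cells. Compounds were added with an EC20 of dopamine (50 nM final) for 90 min at 37 deg C. Luminescence was read 1 h after detection reagent, with 57 uM dopamine as the EC100 control.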
PINK1 modulator: PINK1 expression modulation. Potency, µM (titrated, usually from 76.6 µM), without a hit: at the top dose activation (PINK1 increase), usual class: activators. AID 624263. hit rate 0.2% among 410,000. PINK1 immunofluorescence, high-content cytometry, 24 h; active = well fitted activation curve with a large enough effect; inconclusive = small, poorly fitted or top-dose-only effect; inactive = flat fitted curve, though single readings scatter; cell line not stated here;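 also: potency is read from the fitted curve at half-maximal effect; % of control where 0% means no effect; nearly all actives have a fitted effect of over 65% in size; a mitochondrial uncoupler was the plate control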
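Stable cell line, 250 cells/well, 12 h attachment; compounds pinned at 5 concentrations, 24 h; CCCP control. Fixed with nuclear dye, primary antibodies 12 h at 10 degrees C, secondary plus cell stain; laser-scanning cytometer read.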
Six1-Eya2 blk: blocks human Six1 binding to Eya2. Q15475+O00167. AlphaScreen GST-Six1/His-Eya2 binding, biochemical; stronger effect = lower value; control for the full effect not named in the record. activity change, % (test concentration not listed). hit rate 0.56% among 360,000. AID 651725; in the data active = activity change below about -65%; inconclusive = about -30% to -65%; inactive = above about -30%; also: % is scaled to controls: 0 for no effect and ±100 for the full control effect; compound concentration not given in the record
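GST-Six1 + His-Eya2 (5X stock: 250/500 nM); Tris pH 8.0, 300 mM NaCl, 0.05% BSA, 0.02% Tween 20; GSH donor/Ni acceptor beads; 1 h 37 °C dark; AlphaScreen readout.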
D2 agonist: human D2 receptor agonism in beta-arrestin assay; DiscoveRx PathHunter D2 beta-arrestin, luminescence, 90 min; 100% = 57 uM dopamine signal; activation, % (test concentration not listed); hit rate 0.084% among 360,000; AID 624465; in the data active = activation above about 40%; inconclusive = about 15% to 40%; inactive = below about 15%; also: compound concentration not given in the record; the text of the record calls up to 30% inactive
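Agonist mode: compounds alone added to overnight-plated D2 PathHunter cells for 90 min at 37 C, with 57 uM final dopamine (EC100) defining full response. Beta-arrestin recruitment detected by chemiluminescent reagent, read after 1 h at ambient temperature.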
TRPML1 agonist: activates the human TRPML1 channel. TRPML1-expressing cells, Ca2+ dye fluorescence, FDSS; host cell line not named in the record; reference of the full effect not given here. hit rate 0.12% among 410,000. activation, % (no concentration beside the values); in the data active = activation above about 50%; inconclusive = about 30% to 50%; inactive = below about 30%; also: 0% is about no effect; the text of the record puts the active cut at 80%
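Kinetic FDSS Ca2+ read in Tet-induced TRPML1-DL cells (ABD Ca8 dye plus quencher, 45-90 min RT loading): baseline, then compound, then 110 s agonist window; EC80 agonist 54-4 at 4uM final added afterwards for a 110 s antagonist window.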
Starred values were filed as active, the others as inactive; ? = inconclusive; nt = no result given; & = joins results of further samples; [ ] = remark or other dose.

1) COc1ccc(NC2=NC(=S)N(c3ccccc3C)C23CCCCC3)cc1
2) COC(=O)CSc1nnc(CNC(=O)c2ccc(S(=O)(=O)N3CCOCC3)cc2)n1C
3) C/C(=N/NS(=O)(=O)c1ccc(Cl)cc1)c1cccc(NC(=O)c2ccncc2)c1
4) CNC(=O)COc1ccc(S(=O)(=O)Nc2ccccc2)cc1
5) Cc1cn2c(=O)cc(COc3ccccc3NC(=O)c3ccco3)nc2s1
6) CCOC(=O)CC(NC(=O)Cn1nnc(-c2ccccc2C)n1)c1ccc(OC)cc1 (stereo unspecified)
7) COc1ccc(OC)c(Cc2nnc(CCC(=O)N3CCCCC3c3nccs3)o2)c1 (stereo unspecified)
8) O=C(OCC(=O)N1CCCc2ccccc21)c1cc(S(=O)(=O)N2CCOCC2)ccc1F
9) Cc1ccc(N2CC(NC(=O)c3ccc(S(=O)(=O)N4CCCC4)cc3)CC2=O)cc1 (stereo unspecified)
10) O=C(O)c1ccc(C(=O)c2ccc3c(c2)C(=O)N(CC2CCCO2)C3=O)cc1 (stereo unspecified)
assay / compound	1	2	3	4	5	6	7	8	9	10
TRPML1 blocker	1	-3	0	-10	-1	6	13	-5	-11	-7
D2 PAM	-18	-9	-18	1	nt	nt	-14	-15	nt	-4
PINK1 modulator	2.9%	0.5%	-0.6%	-0.1%	1.2%	1.2%	-1.3%	0.4%	1.5%	-0.5%
Six1-Eya2 blk	-8	6	-10	1	nt	nt	-18	0	nt	-1
D2 agonist	-2.0	-5.0	-1.3	-4.1	nt	nt	-1.8	1.6	nt	-1.6
TRPML1 agonist	8.8	-0.3	-0.1	-0.2	-0.1	3.9	-0.9	1.7	-1.3	-0.1

11) Cc1nc2c(-c3ccc(F)cc3)c(C)nn2c(C)c1CCC(=O)NCc1cccc(Cl)c1
12) O=C(Nc1ccccc1)C(c1ccccc1)C1CCCC1 (stereo unspecified)
13) COc1ccccc1NC(=O)Cc1cccc2ccccc12
14) CCOc1ccc(C(=O)NC(=S)Nc2ccccc2N2CCC(C)CC2)cc1[N+](=O)[O-]
15) Cn1c(=O)c2nc(-c3ccccc3)oc2c2ccccc21
16) COc1cc2ncnc(NCCCN3CCOCC3)c2cc1OC
17) O=C(O)c1cccc(N2CCCC2=O)c1
18) Cn1c(-c2cccc([N+](=O)[O-])c2)[n+](C)c2ccccc21
19) CC(C)(C)NCC(O)COc1cccc2[nH]c(=O)[nH]c12 (stereo unspecified)
20) O=C(O)c1ccc(NC(=O)C2(c3ccccc3)CCOCC2)cc1
assay / compound	11	12	13	14	15	16	17	18	19	20
TRPML1 blocker	35	-5	1	-3	-9	-15	-9	-17	-13	-15
D2 PAM	nt	-6	1	-8	-17	-1	-15	1	-14	5
PINK1 modulator	2.8%	5.1%	0.7%	2.8%	0.5%	0.7%	4.9%[38.3 µM]	1.1%	0.6%	-1.5%
Six1-Eya2 blk	nt	7	-2	-15	-14	0	3	-3	2	15
D2 agonist	nt	-2.8	2.7	-3.7	-5.0	-4.2	1.5	-3.7	-5.4	-1.3
TRPML1 agonist	-0.2	0.0	-0.2	3.1	2.8	0.8	0.2	-0.6	0.1	-0.5

21) COC1=C/C(=C/c2c(N)n3nc(CC(=O)N4CCOCC4)sc3nc2=O)C=CC1=O
22) COc1cccc(C(=O)Nc2cccc(NC(C)=O)c2)c1
23) O=C(/C=C/c1cccs1)Nc1ccc(S(=O)(=O)Nc2ncccn2)cc1
24) CCN1C(=O)NC(c2cc(Br)ccc2OC)C(C(=O)OC)=C1C (stereo unspecified)
25) CCCCCCSc1ccc([C@@H]2[C@H]3C(=O)N(C)C(=O)[C@H]3[C@]3(C(=O)OC)CCCCN23)cc1OC
26) Cc1ccc([C@H]2C[C@H](O)[C@@H](n3cc(COC(=O)c4ccccc4)nn3)CN2C(=O)C2CCCCC2)cc1
27) Cc1ccc(S(=O)(=O)NCC(=O)OCC(=O)N2CC(=O)Nc3ccccc32)cc1
28) CCCN(CC(=O)Nc1ccccc1OC)C(=O)CSC(=S)N1CCCC1
29) O=C(CNC(=O)OCc1ccccc1)OC(c1ccccc1)c1ccccc1
30) O=C(CN1C(=O)c2ccccc2S1(=O)=O)NCCc1ccc(F)cc1
assay / compound	21	22	23	24	25	26	27	28	29	30
TRPML1 blocker	1	-7	12	3	20	27	7	-6	-14	-22
D2 PAM	-8	0	-5	1	-45	-1	-20	-4	-4	-8
PINK1 modulator	1.0%	5.1%[38.3 µM]	0.5%	1.4%	15%	2.2%	1.1%	3.6%	7.8%	4.2%
Six1-Eya2 blk	3	2	-2	-3	-17	-8	11	4	2	10
D2 agonist	-5.4	-0.5	-3.5	-1.5	-3.7	-10.0	-1.1	-4.8	1.9	-2.7
TRPML1 agonist	1.3	1.1	0.3	0.6	0.8	-0.2	-0.3	0.8	13	-0.4

Reprinted: compounds 16 to 28
16) COc1cc2ncnc(NCCCN3CCOCC3)c2cc1OC
17) O=C(O)c1cccc(N2CCCC2=O)c1
18) Cn1c(-c2cccc([N+](=O)[O-])c2)[n+](C)c2ccccc21
19) CC(C)(C)NCC(O)COc1cccc2[nH]c(=O)[nH]c12 (stereo unspecified)
20) O=C(O)c1ccc(NC(=O)C2(c3ccccc3)CCOCC2)cc1
21) COC1=C/C(=C/c2c(N)n3nc(CC(=O)N4CCOCC4)sc3nc2=O)C=CC1=O
22) COc1cccc(C(=O)Nc2cccc(NC(C)=O)c2)c1
23) O=C(/C=C/c1cccs1)Nc1ccc(S(=O)(=O)Nc2ncccn2)cc1
24) CCN1C(=O)NC(c2cc(Br)ccc2OC)C(C(=O)OC)=C1C (stereo unspecified)
25) CCCCCCSc1ccc([C@@H]2[C@H]3C(=O)N(C)C(=O)[C@H]3[C@]3(C(=O)OC)CCCCN23)cc1OC
26) Cc1ccc([C@H]2C[C@H](O)[C@@H](n3cc(COC(=O)c4ccccc4)nn3)CN2C(=O)C2CCCCC2)cc1
27) Cc1ccc(S(=O)(=O)NCC(=O)OCC(=O)N2CC(=O)Nc3ccccc32)cc1
assay / compound	16	17	18	19	20	21	22	23	24	25	26	27
TRPML1 blocker	-15	-9	-17	-13	-15	1	-7	12	3	20	27	7
D2 PAM	-1	-15	1	-14	5	-8	0	-5	1	-45	-1	-20
PINK1 modulator	0.7%	4.9%[38.3 µM]	1.1%	0.6%	-1.5%	1.0%	5.1%[38.3 µM]	0.5%	1.4%	15%	2.2%	1.1%
Six1-Eya2 blk	0	3	-3	2	15	3	2	-2	-3	-17	-8	11
D2 agonist	-4.2	1.5	-3.7	-5.4	-1.3	-5.4	-0.5	-3.5	-1.5	-3.7	-10.0	-1.1
TRPML1 agonist	0.8	0.2	-0.6	0.1	-0.5	1.3	1.1	0.3	0.6	0.8	-0.2	-0.3

28) CCCN(CC(=O)Nc1ccccc1OC)C(=O)CSC(=S)N1CCCC1
assay / compound	28
TRPML1 blocker	-6
D2 PAM	-4
PINK1 modulator	3.6%
Six1-Eya2 blk	4
D2 agonist	-4.8
TRPML1 agonist	0.8

Remaining list, next part.
31) CC(C)C(C(=O)O)N1C(=O)C2C3CCC(C3)C2C1=O (stereo unspecified)
32) CCCOc1ccc(NC(=O)C2CC(=O)N/C(=N/N=C(C)/C=C/c3ccc(N(C)C)cc3)S2)cc1 (stereo unspecified)
33) COc1cc(CNC(=O)c2cc3n(n2)CCCN(Cc2ccc(C)cc2)C3=O)cc(OC)c1OC
34) CCOc1ccc(Nc2cc(Nc3ccccc3OCC)nc(C=C(C#N)C#N)n2)cc1
35) COc1ccc2c(c1OC)C(=O)OC2C1c2c(cc3c(c2OC)OCO3)CCN1C (stereo unspecified)
36) O=C(c1ccc(S(=O)(=O)c2cccc(Cl)c2)c([N+](=O)[O-])c1)N1CCN(c2ccccn2)CC1
37) CCOC(=O)c1ccccc1NC(=O)CSc1nc2[nH]ncc2c(=O)[nH]1
38) O=C(NCc1ccco1)C1Cc2c(-c3ccccc3Oc3ccccc3)ccnc2O1 (stereo unspecified)
39) CCOc1ccccc1NC(=O)c1ccc(C(=O)Nc2ccccc2OCC)nc1
40) CCOc1ccc(N2C(=O)C3CC(C)=C(C)CC3C2=O)c([N+](=O)[O-])c1 (stereo unspecified)
assay / compound	31	32	33	34	35	36	37	38	39	40
TRPML1 blocker	-1	11	-5	-10	6&-5	-1	3	nt	3	3
D2 PAM	-9	-18	nt	-6	-10&-10&-2	16	-8	-11	1	-9
PINK1 modulator	0.6%	14%	0.7%	1.5%	5.2%&4.6%&5.9%	0.7%	2.2%	2.5%	?	-2.5%[38.3 µM]
Six1-Eya2 blk	5	?	nt	5	-6&0&-3	9	5	-7	0	-10
D2 agonist	0.3	-7.6	nt	-1.0	-7.0&-4.8&-3.6	-0.2	-5.8	-2.4	-2.2	0.8
TRPML1 agonist	0.1	0.7	0.9	1.0	-0.8&-0.4	-0.6	0.4	-0.1	0.7	-0.3

41) CCC/C(C#Cc1cc(OC)cc(OC)c1)=C1/c2ccccc2C(=O)N1c1ccccc1
42) CCOC(=O)N1CCN(C(=O)CSCc2ccccc2)CC1
43) COCC(=O)N(C)C[C@H]1N[C@@](Cc2ccccc2)(C(=O)OC)[C@H]2C(=O)N(Cc3ccccc3)C(=O)[C@@H]12
44) CC(C)COC(=O)N1CCCC1C(=O)O (stereo unspecified)
45) C=CCc1c(C)nc(SCCC)[nH]c1=O
46) CNC(=O)c1[nH]cnc1C(=O)Nc1cccc(Cl)c1
47) COc1ccc(C)cc1NC(=O)c1cc(S(=O)(=O)N2CCC3(CC2)OCCO3)ccc1F
48) O=C(NCCC1CCCCN1S(=O)(=O)c1ccccc1)C(=O)NCc1ccccc1 (stereo unspecified)
49) CCN(CC(=O)NC(C)C)C(=O)c1ccc(Cl)cc1
assay / compound	41	42	43	44	45	46	47	48	49
TRPML1 blocker	6	-11	-12	4	11	21	-22	-12	-6
D2 PAM	-8	-1	-2	5	-9	-8	-9	-1	-20
PINK1 modulator	4.5%	0.8%	0.1%	-3.5%[38.3 µM]	-0.2%[38.3 µM]	0.5%	4.1%	2.5%	4.0%
Six1-Eya2 blk	-20	1	4	2	5	2	-22	6	1
D2 agonist	-1.7	1.9	1.0	-2.1	2.3	1.3	-2.1	0.7	-1.6
TRPML1 agonist	-0.2	-0.7	-0.2	0.2	0.4	-0.1	12	1.9	0.6

Assay outcomes (PubChem BioAssay)
